PrP 5UTR inh = suppresses PrP 5' UTR mRNA reporter expression; cell-based PrP 5' UTR mRNA reporter, plate reader; AID 488862; 340,000 tested, 0.35% active; inhibition, % (no concentration beside the values);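 active = every replicate at 50% or more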;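 note: 0 = median of the neutral control wells; tested in H4 reporter cells; numbers are from one replicate; inactives centre near -14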
BJeLR lethal = BJeLR cell viability loss; BJeLR (HRASV12) viability, CellTiter-Glo ATP luminescence, 48 h; reference of the scale not given here; inhibition, % (concentration not given with the values); 300,000 tested, 0.17% active; AID 1554;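 active = replicate mean above 50%; inconclusive = above 50% but judged a plate artefact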;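 note: 50 nL library stock added to about 25 µL; numbers are from one replicate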
Mtb hypoxia inh = reduces hypoxia-regulated biosensor signal in M. tuberculosis. 300,000 tested, 0.1% active. fluorescence inhibition, % (test concentration not listed). M. tuberculosis hypoxia-regulated fluorescent reporter, fluorescence;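 active = 35 to 45% if threefold the growth effect, above 45% if 1.5-fold the growth effect; inactive = the rest, general growth blockers included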;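 note: wells of about 50 µL received 100 nL stock; 0% = vehicle wells and 100% = reference inhibitor wells; whole bacteria with a GFP reporter of the hypoxia response; strong numbers were not always called active; many hits fall short of the cut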
Sa RN4220 lethal = kills Staphylococcus aureus RN4220. inhibition, % (test concentration not listed). S. aureus RN4220 growth, OD600, 16 h. 330,000 tested, 0.33% active;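 active = z-score of -3 or lower and OD600 up to 0.18 on both plates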;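 note: plate controls were untreated cells for no effect and reference antibiotic for full effect; stock transfer was 100 nL into about 80 µL; one replicate is shown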
Bead autofluor = flagged as autofluorescent in microsphere protease counterscreen; compound autofluorescence counterscreen, microsphere flow cytometry; stronger effect = higher value; fluorescence intensity (concentration not given with the values); 360,000 tested, 3.1% active;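 active = at least 3 SD above the mean of all compounds, about 16000 in these data; inconclusive = too few beads counted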;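 note: 100 nL of 1 mM stock went into each well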
ugtP null kill = kills S. aureus RN4220 lacking UgtP | S. aureus RN4220 ugtP deletion, OD600 growth, 16 h; some inactives read as strong as hits | growth inhibition, % (no concentration beside the values) | 330,000 tested, 0.54% active | AID 1259309;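 active = z-score under -3 and OD600 up to 0.15 on both plates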;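 note: plate controls were untreated wells for no effect and antibiotic for full effect; wells of about 80 µL received 100 nL stock; the first replicate is given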
Mtb hypoxia inh growth = recorded beside Mtb hypoxia inh, whose call it bears; growth inhibition, %; measured here: M. tuberculosis growth (absorbance);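 0% = vehicle and 100% = reference antibiotic; read after six days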
* marks the source's active call; other numbers are inactive results; ? = inconclusive; / = no result given; & = joins results of further samples.

1. Cc1ccc(-c2ccc(=O)n(Cc3cccc(Br)c3)n2)cc1
2. CCOc1cc(CNC(C)(C)CO)cc(Br)c1OCc1ccc(Cl)cc1Cl
3. Cc1csc(NC(=O)c2cc(C)oc2C)n1
4. COc1ccccc1CC(NC(C)=O)C(=O)NC1CCN(C(=O)Nc2cccc(F)c2)CC1 (stereo not given)
5. CCN(C(=O)CSc1nnc(-c2ccncc2)n1Cc1ccccc1)C1CCS(=O)(=O)C1 (stereo not given)
6. Cc1ccc[n+](C(C)C(=O)c2ccc(-c3ccccc3)cc2)c1 (stereo not given)
7. CCN(C(=O)COC(=O)/C=C/c1cnc2ccccc2n1)c1ccccc1
8. CCCC(=O)Nc1ccc(-c2nc3cc(C)c(C)cc3o2)cc1
Screen / compound no.	1	2	3	4	5	6	7	8
PrP 5UTR inh	3	/	-63	-15	4	-5	-18	-78
BJeLR lethal	0	6	3	-16	1	1	-9	7
Mtb hypoxia inh	8	10	/	-16	12	11	17	16
Mtb hypoxia inh growth	10	8	/	2	4	4	7	6
Sa RN4220 lethal	-4.8	-1.3	-6.8	0.5	14	7.2	8.7	2.3
Bead autofluor	3091	9031	2987	4995	3085	2600	3354	7895
ugtP null kill	10	-48	-7	4	8	5	-1	11

Ordered by molecular weight (low to high): 5 of the compounds above.
3. Cc1csc(NC(=O)c2cc(C)oc2C)n1
6. Cc1ccc[n+](C(C)C(=O)c2ccc(-c3ccccc3)cc2)c1 (stereo not given)
8. CCCC(=O)Nc1ccc(-c2nc3cc(C)c(C)cc3o2)cc1
7. CCN(C(=O)COC(=O)/C=C/c1cnc2ccccc2n1)c1ccccc1
5. CCN(C(=O)CSc1nnc(-c2ccncc2)n1Cc1ccccc1)C1CCS(=O)(=O)C1 (stereo not given)
Screen / compound no.	3	6	8	7	5
PrP 5UTR inh	-63	-5	-78	-18	4
BJeLR lethal	3	1	7	-9	1
Mtb hypoxia inh	/	11	16	17	12
Mtb hypoxia inh growth	/	4	6	7	4
Sa RN4220 lethal	-6.8	7.2	2.3	8.7	14
Bead autofluor	2987	2600	7895	3354	3085
ugtP null kill	-7	5	11	-1	8

Next structures follow.
9. CC(=O)N1N=C(c2cccs2)CC1c1cccs1 (stereo not given)
10. C[C@H](CO)N1C[C@H](C)[C@@H](CN(C)Cc2ccc(-c3ccccc3)cc2)Oc2ccc(NC(=O)Cn3cnnn3)cc2C1=O
11. O=c1oc2cc(OCCO)ccc2c2c1CCCC2
12. COc1cc2c(cc1OC)CN(C(=O)c1cc(C3CC3)nn1-c1ccccc1)CC2
13. COc1ccc(-c2nnc(SC(C)C(=O)Nc3nccs3)n2Cc2ccccc2)cc1OC (stereo not given)
14. O=C(c1cccc(S(=O)(=O)Nc2ccc(F)cc2)c1)N1CCC1
15. CCOC1OC(C(=O)O)=CC(C2CCCCC2)C1CCCO (stereo not given)
16. Cc1ccc(C(=O)NC2CCN(C(=O)Nc3ccccc3)CC2)cc1
Screen / compound no.	9	10	11	12	13	14	15	16
PrP 5UTR inh	-25	-2	-17	-41	-15	-8	/	-5
BJeLR lethal	7	/	17	/	-10	/	/	0
Mtb hypoxia inh	8	-7	7	4	9	4	-9&-6	2
Mtb hypoxia inh growth	1	2	0	-2	10	0	6&4	8
Sa RN4220 lethal	5.7	0.4	1.4	2.6	2.5	0.0	0.0&0.4	5.0
Bead autofluor	4746	3778	3740	3487	20588*	3372	/	4206
ugtP null kill	2	-2	-2	5	-9	2	-3&-1	10

17. CCc1nc2ccccc2c(C(=O)OCC(=O)NCCCN2CCCC2=O)c1C
18. CCc1ccc(NC(=O)C/C(C)=N/NC(=O)COc2ccccc2C)cc1
19. COC(OC)c1ccnc(-c2ccc(OC(=O)c3cccs3)cc2)n1
20. O=C(c1ccc(S(=O)(=O)c2ccccc2Cl)c([N+](=O)[O-])c1)N1CCCCCC1
21. CC(C)COc1ccc(CNC(=S)NCc2ccccc2)cc1
22. Cc1ccc(C)c(S(=O)(=O)N2CCN(C(=O)CCNC(=O)c3ccc(Br)cc3)CC2)c1
23. Cc1ccc(N2CC(C(=O)Nc3nnc(SCC(=O)N4CCOCC4)s3)CC2=O)cc1 (stereo not given)
24. CC1CCN(CCCNC(=O)c2ccc3c(Cl)c4c(nc3c2)CCCC4)CC1
Screen / compound no.	17	18	19	20	21	22	23	24
PrP 5UTR inh	-2	-27	-16	-22	0	-13	-10	-9
BJeLR lethal	20	-5	2	10	-7	3	-10	3
Mtb hypoxia inh	/	/	-1	12	6	-1	3	18
Mtb hypoxia inh growth	/	/	9	12	5	3	8	12
Sa RN4220 lethal	2.7	/	7.6	-0.8	-2.3	5.8	2.6	-3.5
Bead autofluor	4142	3658	4326	2679	7319	?	5285	4581
ugtP null kill	-1	/	8	21	-14	3	7	-5

25. COc1cc2[nH]c(=S)n(NC(=O)c3ccccc3)c(=O)c2cc1OC
26. COc1ccc(S(=O)(=O)Nc2ccc3c(c2)OCCO3)cc1Cl
27. COc1ccc2[nH]c3c(c2c1)CCN[C@H]3C
28. O=C(Cn1nnc2ccccc21)N/N=C\c1cccs1
29. Cc1cc(C)n2nc(S(=O)(=O)NCCc3ccccc3)nc2n1
30. N#CC(C(=O)c1ccccc1Cl)=C1SCCCS1
31. Cc1cccc(/C=N/NC(=O)NC2CCCCC2)c1
32. Cc1ccc(NC(=O)N(C2=NCC(C)S2)c2ccccc2)cc1 (stereo not given)
Screen / compound no.	25	26	27	28	29	30	31	32
PrP 5UTR inh	-9	-10	-22	-2	-7	-20	-30	-16
BJeLR lethal	6	1	-16	-4	12	-6	6	10
Mtb hypoxia inh	4	4	0	/	/	0	/	12
Mtb hypoxia inh growth	-2	6	2	/	/	0	/	8
Sa RN4220 lethal	8.3	8.9	-6.0	/	1.1	0.2	/	2.0
Bead autofluor	16796*	2779	4531	2006	4341	5824	1995	19772*
ugtP null kill	18	10	-1	/	-3	3	/	44

33. CCc1c(C#N)c(N)nc(SCC(=O)OCc2ccccc2)c1C#N
34. CCN(CC)CCN=Cc1c(O)n(C2CCCCCC2)c(=O)[nH]c1=O
35. Cc1ccc(Nc2nnc(SCC(=O)N(C)C3CCS(=O)(=O)C3)s2)cc1 (stereo not given)
36. CCOc1ccc(C(=O)CCC(=O)NC2=NCCS2)cc1
37. CCCn1c(=S)[nH]c2cc(C(=O)N3CCc4ccccc4C3)ccc2c1=O
38. O=C(OCc1ccc(Cl)c(Cl)c1)c1cnccn1
39. CCOC(=O)[C@@H]1[C@H]2COc3ccccc3[C@H]2N2C(=O)N(c3cccc(F)c3)C(=O)[C@]12C
40. O=C(O)CCN1C(=O)/C(=C\c2ccncc2)SC1=S
Screen / compound no.	33	34	35	36	37	38	39	40
PrP 5UTR inh	-11	-20	-28	-27	-25	-15	-8	-20
BJeLR lethal	-1	-6	2	-3	-4	-13	10	-9
Mtb hypoxia inh	4	/	6	-1	2	/	/	38*
Mtb hypoxia inh growth	2	/	-6	6	4	/	/	23*
Sa RN4220 lethal	10	1.7	0.3	0.2	0.6	7.0	/	7.9
Bead autofluor	17979*	2489	2766	?	2663	4160	4138	4216
ugtP null kill	-8	4	3	4	-4	5	/	14

41. Nc1c(C(=O)Nc2ccccc2)sc2ncc([N+](=O)[O-])cc12
42. O=C(Nc1ccc(-c2nc3ccccc3[nH]2)cc1)c1ccccc1NS(=O)(=O)c1ccc(F)cc1
43. CC(C)(C)c1ccc(-c2noc(CCC(=O)NCC3CCCO3)n2)cc1 (stereo not given)
44. COc1ccc(OC)c2c1sc(=NC(=O)C1CCCCC1)n2C
45. CC1(C)CC(=O)C2=C(C1)N1C(=C(C#N)C2c2ccc(Cl)cc2)N=C(N)c2ccccc21 (stereo not given)
46. COc1cc(OC)c(NC2=CC(=O)C(=O)c3ccccc32)cc1Cl
47. COc1ccc(S(=O)(=O)NCc2ccco2)cc1-c1nnc2c3ccccc3c(C)nn12
48. CCOC(=O)C1C2COc3ccc(Br)cc3C2N2C(=O)N(c3ccccc3)C(=O)[C@@]12C (stereo not given in full)
Screen / compound no.	41	42	43	44	45	46	47	48
PrP 5UTR inh	/	-2	46	-28	-17	56	-1	/
BJeLR lethal	4	-13	-14	-10	-1	24	-8	/
Mtb hypoxia inh	12	11	4	16	/	/	0	2&17
Mtb hypoxia inh growth	4	11	9	3	/	/	6	8&2
Sa RN4220 lethal	3.7	12	-0.7	1.6	46	/	0.3	-7.8&4.8
Bead autofluor	/	2345	15909	5091	6476	3466	20211*	/
ugtP null kill	19	21	4	7	28	/	-3	-6&2

49. CCOc1ccc(-n2nnc3c(=O)n(CC=Cc4ccccc4)cnc32)cc1
50. COc1ccc(NC(=O)C2CCCN(c3c4c(nc5ncnn35)CCC4)C2)cc1OC (stereo not given)
51. CCc1ccc(NC(=O)Nc2ccncc2)cc1
52. O=S(=O)(/N=C/c1ccccc1O)c1cccs1
53. COC(=O)CSc1nnc([C@H](Cc2ccccc2)NC(=O)OC(C)(C)C)o1
54. COCCn1c(=O)[nH]c2cc(C(=O)Nc3nnc(C)s3)ccc21
55. CCN1CCN(C(=S)Nc2ccc(C(C)=O)cc2)CC1
56. CCn1nnnc1SCC(=O)N1c2ccccc2Sc2ccccc21
Screen / compound no.	49	50	51	52	53	54	55	56
PrP 5UTR inh	/	/	-48	-44	-9	-3	-28	-14
BJeLR lethal	/	-2	-7	-14	-4	-12	-5	-2
Mtb hypoxia inh	2	-2	3	/	/	-4	13	/
Mtb hypoxia inh growth	7	7	-1	/	/	10	11	/
Sa RN4220 lethal	3.6	3.0	-2.3	/	4.3	7.2	3.4	-2.8
Bead autofluor	/	10644	2536	5009	2694	2812	4295	2356
ugtP null kill	8	4	1	/	2	8	5	9

57. CCCCC(=O)NC(NC(=S)N1CCOCC1)C(Cl)(Cl)Cl (stereo not given)
58. COc1ccc(C(=O)COC(=O)C2CC3CCCC(C2)C3=O)cc1Br (stereo not given)
59. Cc1cc(N/N=C/c2ccc(Cl)cc2Cl)nc(NCc2ccccc2)n1
60. CCCC(C(=O)NC(C)(C)CC)N(CC1CCCO1)C(=O)CNS(=O)(=O)c1ccc(F)cc1 (stereo not given)
61. CCCn1nnnc1NC(=O)c1cc(Br)ccc1OC
62. Cc1ccc(NC(=O)C2CC(=O)Nc3nncn32)cc1 (stereo not given)
63. Cc1ccc(NS(C)(=O)=O)c(C(=O)c2ccccc2)c1
64. Oc1ccccc1/C=N/NC(=S)NC1CC2CCC1C2 (stereo not given)
Screen / compound no.	57	58	59	60	61	62	63	64
PrP 5UTR inh	-9	-8	7	-23	-24	-34	-13	-7
BJeLR lethal	1	7	-2	4	-16	/	-1	-5
Mtb hypoxia inh	4	8	/	13	13	16	5	/
Mtb hypoxia inh growth	1	10	/	2	-1	0	3	/
Sa RN4220 lethal	1.2	0.5	/	0.9	1.2	3.0	5.7	/
Bead autofluor	23068*	?	2170	2952	2524	2719	6663	4373
ugtP null kill	3	5	/	5	-2	2	6	/

65. O=C(NCc1cccnc1)NC1CC(=O)N(c2ccc3c(c2)OCCO3)C1 (stereo not given)
66. COc1ccccc1CN=C1NC(=O)C(CC(=O)Nc2ccc(C(C)=O)cc2)S1 (stereo not given)
67. CCSc1nsc(NC(=O)Nc2ccc(F)cc2F)n1
68. O=C(CNc1cccc(S(=O)(=O)N2CCCC2)c1)Nc1cccc(F)c1
69. Cc1ccc(CNC(=O)C(N=C2NS(=O)(=O)c3ccccc32)C(C)C)cc1 (stereo not given)
70. CC(C)NC(=O)c1nn2c(C(F)(F)F)cc(-c3ccco3)nc2c1Cl
71. CSCCC(NC(=O)c1ccco1)C(=O)N1CCCCCCC1 (stereo not given)
72. CC(=O)N1CCN(c2ccc(NC(=O)c3cc4ccccc4o3)cc2)CC1
73. O=C(CSc1nnc2ccccn12)Nc1ccc(S(=O)(=O)N2CCOCC2)cc1
74. COCCN1CCN(C(=O)c2ccc3nc(Cc4ccc(OC)c(OC)c4)oc3c2)CC1
Screen / compound no.	65	66	67	68	69	70	71	72	73	74
PrP 5UTR inh	-17	-8	-49	-5	-23	-3	-13	-11	-12	-11
BJeLR lethal	7	2	-16	6	/	1	18	-6	-2	10
Mtb hypoxia inh	9	0	-11	-4	6	5	-3	5	-4	-2
Mtb hypoxia inh growth	10	-4	-9	-6	1	-2	-6	5	10	-9
Sa RN4220 lethal	2.6	1.5	19	4.7	3.8	7.7	2.0	3.2	4.0	3.6
Bead autofluor	4648	3473	3099	/	3831	4446	6183	3620	4386	5262
ugtP null kill	0	1	-28	6	5	8	2	2	5	12

Assay outcomes: PubChem, several laboratories
